Screening results (PubChem)
RGS16-Gao HTS – regulators of human RGS16-Galphao interaction; AID 1441; binding response (% of control), % at 10 µM; bead-based flow cytometry RGS16-Galphao binding, fluorescence; actives lie on both sides; O15492+P09471; actives 0.38% (n = 220,000);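 active = below 25% or above 175%, edge rows of some plates excepted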;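 note: Galphao activated by GDP with aluminum fluoride before binding; 100% = wells without compound and 0% = beads without RGS; some results beyond the cut were filed as inactive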
HSV replic up – increases HSV replication in cells | maximum fold increase | AID 1956 | HSV replication augmentation in cells, fold increase | actives 0.005% (n = 220,000);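 active = peak rise of 1.5-fold or more in the series; tested in PC3 cells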;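 note: first round at 10 µM; read as green reporter fluorescence; hits show the peak of a series up to 25 µM; 1 = signal of infected wells without compound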
GALR2 ag – agonists of human galanin receptor 2 (GALR2) | O43603 | GALR2-expressing cells, agonist activation read-out | activation, %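 (tested at 5 µM)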 | actives 0.48% (n = 140,000);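 active = above mean plus 3 SD of all compounds, about 5% in these data, not always enough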;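 note: 0% = vehicle buffer wells and 100% = reference agonist at full effect; tested in CHO reporter cells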
PKD1 inh – inhibitors of human PKD1 kinase; Q15139; AID 797; actives 0.056% (n = 200,000); PKD1 kinase fluorescence polarization assay; inhibition, %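 (about 10 µM by stock and volumes)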;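 active = inhibition of 50% or more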;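 note: controls were vehicle for no effect and a reference inhibitor for full effect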
Target sequence (Q15139 whole entry, looked up): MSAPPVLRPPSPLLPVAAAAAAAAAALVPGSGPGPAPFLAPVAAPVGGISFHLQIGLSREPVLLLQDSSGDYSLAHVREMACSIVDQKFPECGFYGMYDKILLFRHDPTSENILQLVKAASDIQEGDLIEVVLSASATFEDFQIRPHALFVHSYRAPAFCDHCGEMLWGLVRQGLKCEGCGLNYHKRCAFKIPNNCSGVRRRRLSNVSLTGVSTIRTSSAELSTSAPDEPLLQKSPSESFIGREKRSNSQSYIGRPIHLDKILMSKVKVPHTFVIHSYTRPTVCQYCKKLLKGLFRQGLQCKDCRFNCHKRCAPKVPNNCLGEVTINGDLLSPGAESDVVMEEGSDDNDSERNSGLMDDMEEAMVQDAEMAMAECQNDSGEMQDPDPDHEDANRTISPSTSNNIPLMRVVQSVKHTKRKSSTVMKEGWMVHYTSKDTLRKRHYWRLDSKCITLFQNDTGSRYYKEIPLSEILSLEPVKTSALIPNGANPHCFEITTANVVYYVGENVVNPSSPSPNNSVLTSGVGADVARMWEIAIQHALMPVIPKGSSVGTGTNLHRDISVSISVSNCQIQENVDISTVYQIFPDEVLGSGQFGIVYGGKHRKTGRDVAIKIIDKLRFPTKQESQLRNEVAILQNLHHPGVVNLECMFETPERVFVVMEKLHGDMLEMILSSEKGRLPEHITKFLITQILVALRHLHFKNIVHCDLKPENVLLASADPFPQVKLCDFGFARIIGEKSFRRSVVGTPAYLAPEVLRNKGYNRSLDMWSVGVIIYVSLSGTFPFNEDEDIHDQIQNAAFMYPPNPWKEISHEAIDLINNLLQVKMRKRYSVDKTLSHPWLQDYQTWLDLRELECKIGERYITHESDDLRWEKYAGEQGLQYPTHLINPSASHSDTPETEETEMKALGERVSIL
Insulin prom inh – TRM-6 insulin promoter activity inhibition. inhibition, % at 2 µM. TRM-6 cells (human fetal islet line), insulin promoter-eGFP reporter, imaging; reporter expression induced with tamoxifen. actives 0.9% (n = 130,000);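 active = inhibition above the mean plus 3 SD, with well images judged a real hit on visual review, cut at about 60% in these data, passing the limit was not always enough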
Insulin prom inh cell count – recorded beside Insulin prom inh, whose call it bears; normalized cell count, %; measured here: cell count, toxicity; reference of the scale not given here;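 cells exposed to compound for 48 h; stained nuclei by imaging scaled within each plate; lower means fewer cells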
HSV replic up primary fold – further read-out of HSV replic up, marked with its call; fold increase; compound at 10 µM; measured here: primary screen fold increase 10 uM; tested in PC3 cells;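 GFP signal in the first replicate; 1 = infected wells without compound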
* marks the source's active call; other numbers are inactive results; i = inactive; . = not tested or not shown.

The line under a structure holds: RGS16-Gao HTS	HSV replic up	HSV replic up primary fold	GALR2 ag	PKD1 inh	Insulin prom inh	Insulin prom inh cell count
> Cc1cc(C)c2cc(CN(Cc3ccco3)C(=O)NCc3ccccc3)c(=O)[nH]c2c1
→ 95	i	1	-1.8	1	.	.
> Cc1nc(C)c(C(=O)OCC(=O)N2CCN(c3ccccc3)CC2)s1
→ 111	i	0.98	-0.7	0	68	169
> CCC1=NN2C(=N)/C(=C/c3cc(C)n(Cc4ccccc4)c3C)C(=O)N=C2S1
→ 111	i	0.97	.	.	.	.
> S=c1nc[nH]c2c1ncn2C1CCCO1 (stereo not drawn)
→ 101	i	0.98	.	.	.	.
> Cc1ccn2cc(CNS(=O)(=O)c3cccs3)nc2c1
→ 99	i	1.1	.	.	.	.
> COc1ccc(NC(=O)CSc2nnnn2-c2ccc(OC)cc2)cc1
→ 112	.	.	-1.2	-8	4	78
> O=c1nc(Nc2ccccc2)oc2ccccc12
→ 98	i	1	.	.	.	.
> Cc1nc(-c2ccccn2)nc(SCC(=O)N2CCOCC2)c1Cl
→ 107	i	0.81	.	.	.	.
> CC1CCC(C(C)C)C(OC(=O)CSc2nc(N)cc(=O)[nH]2)C1 (stereo not drawn)
→ 102	i	1.2	-0.3	-6	25	97
> COc1ccc(NC(=O)c2sccc2-n2cccc2)cc1
→ 106	i	0.94	.	3	-60	89
> COCCN(C(=O)CCC(=O)Nc1cc(C)on1)C(C(=O)NC1CCCC1)c1ccccc1C (stereo not drawn)
→ 55	i	1.1	.	1	.	.
> Cc1cc(C)nc(N2CCN(c3nc(C)cc(C)n3)CC2)n1
→ 105	i	1	-2.9	9	.	.
> CCN1C(=O)c2cccc3c(S(=O)(=O)Nc4c(C)n(C)n(-c5ccccc5)c4=O)ccc1c23
→ 102	i	1.2	4.8	-6	12	153
> O=C(c1nn2c(C(F)(F)F)cc(-c3ccccc3)nc2c1Cl)N1CCOCC1
→ 105	i	0.96	-1.6	4	21	100
> Oc1ccc(Nc2ncnc3scc(-c4ccccc4)c23)cc1
→ 118	i	0.84	-0.9	3	.	.
> Cc1ccccc1OCC(=O)NNC=O
→ 101	i	0.8	.	-11	-35	124
> O=C(CCSc1nc(-c2ccco2)cc(C(F)(F)F)n1)N1CCCc2ccccc21
→ 100	i	1.2	-1.4	0	.	.
> CCN(CC)S(=O)(=O)c1ccc(Cl)c(NC(=O)COc2ccc3c(C)cc(=O)oc3c2)c1
→ 98	.	.	-1.4	-3	8	75
> C=CCNC(=S)NCCCCC1NC(=S)N(CC=C)C1=O (stereo not drawn)
→ 86	i	1	0.3	3	-13	76
> COC(=O)[C@H](CC(C)C)NC(=O)Nc1ccc2c(c1)OCCO2
→ 105	i	1.2	-2.5	13	-53	129
> COc1cccc(C(=O)NNC(=O)Cc2cccs2)c1
→ 97	i	1	.	5	-50	70
> CCN(CCO)C(=O)C(c1ccccc1)c1ccccc1
→ 96	i	0.99	-1.4	-11	-3	64
> Cc1cc(C(=O)CN2CCC(C)CC2)c(C)n1-c1ccc(F)cc1
→ 112	i	1.2	-1.1	7	.	.
> CC(C)CCn1c2ccccc2c2cc(CC(N)=O)ccc21
→ 99	i	0.92	.	.	.	.
> CCCCNC(=O)c1onc(CSc2ccccc2F)c1C(=O)O
→ 113	i	0.75	-1.8	-2	.	.
> COC(=O)/C(C#N)=C/c1c[nH]c2ccccc12
→ 108	i	1.1	.	4	20	71
> CCCCCNC(=O)C1CC=CCC1C(=O)O (stereo not drawn)
→ 106	i	0.8	-1.1	5	19	115
> O=C(Nc1ccc2c(c1)oc1ccccc12)N1CCOCC1
→ 91	i	0.82	-0.7	-13	9	115
> Nc1ccc(C(=O)c2ccccc2C(=O)O)cc1Cl
→ 107	i	0.96	-1.0	-1	-5	72
> CCOC(=O)/C=C1\NC(C)(C)Cc2cc(OC)c(O)cc21
→ 108	i	0.89	0.0	4	.	.
> Cc1ccc(-n2c(SCC(=O)NCc3ccco3)nc3nc4c(cc3c2=O)COC(C)(C)C4)cc1
→ 98	i	0.9	-0.1	-7	.	.
> CCC(=O)Nc1ccc(Cl)c(NC(=O)c2ccc(Br)o2)c1
→ 103	i	0.87	-1.6	-2	-334	31
> O=C(CN1C(=O)C2CC=C(Cl)CC2C1=O)N1CCOCC1 (stereo not drawn)
→ 100	i	0.97	-1.3	-3	-35	131
> Nc1nn2c(C(F)(F)F)cc(=O)[nH]c2c1N=Nc1cccc(F)c1
→ 99	i	1	.	1	.	.
> Cc1ccccc1OCc1nc(-c2ccc(NC(=O)c3cccs3)cc2)no1
→ 112	i	0.74	0.6	0	-4	135
> Cc1cccc(C)c1N1CCN(c2n[nH]c(N)n2)CC1
→ 99	i	0.86	.	0	9	160
> CCn1cc(C(=O)NCC2CCCO2)c(=O)c2cc(S(=O)(=O)N3CCCCCC3)ccc21 (stereo not drawn)
→ 96	i	0.8	-1.1	6	.	.
> O=S(=O)(Nc1ccccn1)c1ccc(Cl)cc1
→ 100	i	0.66	-2.0	-7	.	.
> COC(=O)CN(C#N)c1nc(NC(C)C)nc(NC(C)C)n1
→ 101	i	0.99	.	0	.	.
> Cn1c2ccccc2n2c(=O)c(Cl)c(-c3ccccc3)c(C#N)c12
→ 128	i	0.97	1.8	2	8	56
> COc1ccc(C(=O)Nc2ccc3c(c2)Cc2ccccc2-3)cc1
→ 98	i	0.97	-1.0	0	.	.
> COc1cc(NC(=O)C2C3C=CC(C3)C2C(=O)O)c(OC)cc1Cl (stereo not drawn)
→ 124	i	1.1	-0.2	-1	-12	128
> O=C(COC(=O)c1ccc(S(=O)(=O)N2CCOCC2)cc1)NC1CCCC1
→ 125	i	0.84	-1.1	1	-6	83
> Cc1oc(-c2ccc3c(c2)OCCO3)cc1C(=O)NC(CCC(=O)O)C(=O)O (stereo not drawn)
→ 99	i	0.89	-0.7	2	.	.
> CCCc1ccc(Oc2cn[nH]c2-c2ccc(O)c(C)c2O)cc1
→ 111	i	0.91	-1.2	3	-16	113
> COc1cccc(C(=O)Nc2cccc(C(=O)NC3=NN(c4c(Cl)cc(Cl)cc4Cl)C(=O)C3)c2)c1
→ 104	i	0.89	3.6	-3	68	92
> CCOC(=O)c1cc(-c2ccccc2)n(CCC(=O)N2CCN(c3ccc(OC)cc3)CC2)c1C
→ 103	i	0.85	0.5	-13	-31	139
> CCCCN(C)C(=O)C1CCN(Cc2ccccn2)CC1
→ 103	i	0.87	-2.1	4	18	103
> COc1ccc(/C=C/C(=O)c2ccc(OC)cc2OC)cc1
→ 97	i	0.54	.	3	.	.
> CC(c1n[nH]c(=S)n1-c1ccccc1)N1CCCCC1 (stereo not drawn)
→ 127	i	1	.	0	40	68
> CCCOc1ccc(OCCCCNC(C)CC)cc1 (stereo not drawn)
→ 112	i	1	-1.4	1	47	51
> O=C(CN1CCN(Cc2ccccc2)CC1)NCC1COc2ccccc2O1 (stereo not drawn)
→ 103	i	1.1	-1.6	0	70	97
> Clc1ccccc1C1=CC(c2ccco2)n2nnnc2N1 (stereo not drawn)
→ 98	i	0.86	.	1	.	.
> COc1cccc(NC(=O)NC2(C(F)(F)F)Oc3ccccc3O2)c1
→ 100	i	0.77	-0.3	-5	22	48
> Cn1c(=O)[nH]c(=O)c2c1nc(OC(=O)c1ccccc1)n2CC(O)COc1ccccc1 (stereo not drawn)
→ 104	i	0.93	0.9	-3	-69	180
> COc1cccc(-n2nc(C(C)=O)c(=O)[nH]c2=O)c1
→ 110	i	0.95	.	-7	18	96
> CSc1nnc(CCNC(=O)OC(C)(C)C)o1
→ 95	i	1	.	.	.	.
> COc1ccc(C2CC(c3ccccc3OC(C)=O)=NN2C(C)=O)cc1 (stereo not drawn)
→ 100	i	1	.	.	.	.
> CCOc1ccc2nc(SCC(=O)NCc3ccc(OC)c(OC)c3)[nH]c2c1
→ 112	i	0.83	.	-5	36	95
> Cc1nnc2sc(-c3cccc(NC(=O)c4cccnc4)c3)nn12
→ 100	i	0.99	-2.6	-6	12	176

Rewritten with tabs: entries from further up.
Molecule	RGS16-Gao HTS	HSV replic up	HSV replic up primary fold	GALR2 ag	PKD1 inh	Insulin prom inh	Insulin prom inh cell count
O=S(=O)(Nc1ccccn1)c1ccc(Cl)cc1	100	i	0.66	-2.0	-7	.	.
COC(=O)CN(C#N)c1nc(NC(C)C)nc(NC(C)C)n1	101	i	0.99	.	0	.	.
Cn1c2ccccc2n2c(=O)c(Cl)c(-c3ccccc3)c(C#N)c12	128	i	0.97	1.8	2	8	56
COc1ccc(C(=O)Nc2ccc3c(c2)Cc2ccccc2-3)cc1	98	i	0.97	-1.0	0	.	.
COc1cc(NC(=O)C2C3C=CC(C3)C2C(=O)O)c(OC)cc1Cl (stereo not drawn)	124	i	1.1	-0.2	-1	-12	128
O=C(COC(=O)c1ccc(S(=O)(=O)N2CCOCC2)cc1)NC1CCCC1	125	i	0.84	-1.1	1	-6	83

Carrying on.
The line under a structure holds: RGS16-Gao HTS	HSV replic up	HSV replic up primary fold	GALR2 ag	PKD1 inh	Insulin prom inh	Insulin prom inh cell count
> O=C1c2ccccc2C(=O)N1CCCCN1CCN(CCCCN2C(=O)c3ccccc3C2=O)CC1
→ .	.	.	-1.4	-5	14	54
> O=C1/C(=C\c2ccc(Br)o2)Cc2ccccc21
→ 106	i	1.1	-1.0	-2	0	113
> CCC(C)C(NC(N)=O)C(=O)Nc1ccc(OCc2ccccc2)cc1 (stereo not drawn)
→ 95	i	0.96	.	.	.	.
> Cc1n[nH]c(=O)nc1NCCc1ccccc1
→ 98	i	0.85	-1.4	-2	7	80
> COc1cc(NS(=O)(=O)c2ccc(NC(=O)c3ccc(C)o3)cc2)nc(OC)n1
→ 88	i	1.1	0.2	-6	12	131
> CCCCC(=O)Nc1ccc(C(=O)N2CCCC(C(=O)OCC)C2)cc1 (stereo not drawn)
→ 88	i	0.92	1.1	-5	45	109
> O=[N+]([O-])c1ccc(/C=[N+](\[O-])CCO)o1
→ 102	i	0.94	.	.	.	.
> COc1cc(C(=O)Nc2cccc(-c3nncn3C)c2)cc(OC)c1OC
→ 110	i	0.95	-0.2	47	65	34
> Cc1cccc2cc(CN(CCCO)C(=O)Nc3ccc(Cl)cc3)c(=O)[nH]c12
→ 104	i	0.91	-1.3	-4	-31	133
> C=CCN(C(=O)Nc1ccc(Cl)cc1)C1CC(=O)N(c2ccc(OC)cc2)C1=O (stereo not drawn)
→ 97	.	.	-0.2	-8	3	97
> CSC1=C(C#N)C(C)C2=C(CC(C)(C)CC2=O)N1 (stereo not drawn)
→ 100	i	0.96	-0.8	-9	.	.
> Cc1ccc2[nH]c(=O)c3cc(C(=O)N(C)Cc4ccco4)sc3c2c1
→ 106	i	0.81	-2.5	2	.	.
> C/C(=N/OC(=O)c1c(F)cccc1F)c1nccs1
→ 101	i	0.74	-0.9	15	13	109
> Cc1ccc(NC(=O)COc2ccc(/C=N/NC(=O)CSCc3ccccc3)cc2)cc1
→ 99	i	0.82	-1.9	-2	25	59
> Cc1ccc(C2CC(C(F)F)n3ncc(C(=O)Nc4c(C)nn(Cc5c(F)cccc5Cl)c4C)c3N2)cc1 (stereo not drawn)
→ 108	i	0.9	-1.6	2	-12	117
> CC(OC(=O)c1cccs1)C(=O)NCc1ccccc1 (stereo not drawn)
→ 101	i	1	-2.4	-13	53	89
> O=C(NC1CC1)C1CCN(C2CCN(C(=O)Cc3ccc4c(c3)OCO4)CC2)CC1
→ 106	i	0.91	.	-6	-12	127
> CCC(C)(C)NC(=O)CN(Cc1ccccc1Cl)C(=O)CCC(=O)Nc1cc(C)ccn1
→ 112	i	0.92	.	5	-48	107
> Cc1cc(NC(=O)c2noc3c2CCc2ccccc2-3)n(-c2ccccc2)n1
→ 100	i	0.8	3.7	-17	.	.
> CN(C(=O)Cn1nnc(-c2cccnc2)n1)C1CCCCC1
→ 96	i	0.93	.	.	.	.
> Cc1ccccc1CSCc1ccc(C(=O)NCCCN2CCOCC2)o1
→ 99	i	0.83	.	-8	47	87

A draw from above in order of molar mass, largest number first:
The line under a structure holds: RGS16-Gao HTS	HSV replic up	HSV replic up primary fold	GALR2 ag	PKD1 inh	Insulin prom inh	Insulin prom inh cell count
> Cc1ccc(C2CC(C(F)F)n3ncc(C(=O)Nc4c(C)nn(Cc5c(F)cccc5Cl)c4C)c3N2)cc1 (stereo not drawn)
→ 108	i	0.9	-1.6	2	-12	117
> O=C(NC1CC1)C1CCN(C2CCN(C(=O)Cc3ccc4c(c3)OCO4)CC2)CC1
→ 106	i	0.91	.	-6	-12	127
> Cc1ccccc1CSCc1ccc(C(=O)NCCCN2CCOCC2)o1
→ 99	i	0.83	.	-8	47	87
> Cc1ccc2[nH]c(=O)c3cc(C(=O)N(C)Cc4ccco4)sc3c2c1
→ 106	i	0.81	-2.5	2	.	.
> CC(OC(=O)c1cccs1)C(=O)NCc1ccccc1 (stereo not drawn)
→ 101	i	1	-2.4	-13	53	89
> O=[N+]([O-])c1ccc(/C=[N+](\[O-])CCO)o1
→ 102	i	0.94	.	.	.	.
